Compound activity as filed in PubChem.
CtBP-E1A blk = blocks the CtBP interaction with E1A. 340,000 tested, 0.49% active. activity change, % (no concentration beside the values). AlphaScreen GST-E1A/His-CtBP binding, 1536-well; stronger effect = lower value; control for the full effect not named in the record; in the data active means activity change below about -65%; inconclusive means about -30% to -65%; inactive means above about -30%; note: % is set by controls: 0 for no effect and ±100 for the full control effect; compound concentration not given in the record
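AlphaScreen with 125 nM GST-E1A and 125 nM His-CtBP (5X stocks) in Tris pH 8.0, 300 mM NaCl, BSA, Tween 20, TCEP. Compounds preincubated 2 h at 37 deg C, then glutathione donor/nickel acceptor beads added for 1 h at 37 deg C in dark.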
PINK1 expr mod = PINK1 expression modulation; Potency, µM (titrated, usually from 76.6 µM), inactives show top-dose activation (PINK1 increase), actives largely listed as activators; PINK1 immunofluorescence, high-content cytometry, 24 h; 410,000 tested, 0.2% active; AID 624263; active = well fitted activation curve with a large enough effect; inconclusive = small, poorly fitted or top-dose-only effect; inactive = flat fitted curve, though single readings scatter; cell line not stated here;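 note: potency is the fitted concentration of half-maximal effect; % of control where 0% means no effect; nearly all actives have a fitted effect of over 65% in size; a mitochondrial uncoupler was the plate control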
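A stable cell line was treated with compounds at 5 concentrations for 24 hours, with CCCP as control. PINK1 levels and mitochondrial localization were measured by immunofluorescence with mitochondrial, cell and nuclear markers after fixation, read by laser-scanning cytometry.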
D2 agonist = human D2 receptor agonism in beta-arrestin assay; AID 624465; 360,000 tested, 0.084% active; activation, % (no concentration beside the values); DiscoveRx PathHunter D2 beta-arrestin, luminescence, 90 min; 100% = 57 uM dopamine signal; in the data active = activation above about 40%; inconclusive = about 15% to 40%; inactive = below about 15%; note: compound concentration not given in the record; the text of the record calls up to 30% inactive
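DiscoveRx PathHunter D2 beta-arrestin cells (2,100/well) attached overnight, then compound-stimulated 90 min at 37 C in HBSS/10 mM HEPES/0.1% Tween-20 buffer; beta-galactosidase complementation read by luminescence after 1 h at ambient temperature. Dopamine 57 uM final (EC100) as control.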
Six1-Eya2 inh = Six1/Eya2 interaction inhibition; Q15475+O00167; AlphaScreen GST-Six1/His-Eya2 binding, biochemical; stronger effect = lower value; control for the full effect not named in the record; activity change, % (test concentration not listed); 360,000 tested, 0.56% active; in the data active = activity change below about -65%; inconclusive = about -30% to -65%; inactive = above about -30%; note: % is set by controls: 0 for no effect and ±100 for the full control effect; compound concentration not given in the record
Target sequence (O00167 whole entry, looked up): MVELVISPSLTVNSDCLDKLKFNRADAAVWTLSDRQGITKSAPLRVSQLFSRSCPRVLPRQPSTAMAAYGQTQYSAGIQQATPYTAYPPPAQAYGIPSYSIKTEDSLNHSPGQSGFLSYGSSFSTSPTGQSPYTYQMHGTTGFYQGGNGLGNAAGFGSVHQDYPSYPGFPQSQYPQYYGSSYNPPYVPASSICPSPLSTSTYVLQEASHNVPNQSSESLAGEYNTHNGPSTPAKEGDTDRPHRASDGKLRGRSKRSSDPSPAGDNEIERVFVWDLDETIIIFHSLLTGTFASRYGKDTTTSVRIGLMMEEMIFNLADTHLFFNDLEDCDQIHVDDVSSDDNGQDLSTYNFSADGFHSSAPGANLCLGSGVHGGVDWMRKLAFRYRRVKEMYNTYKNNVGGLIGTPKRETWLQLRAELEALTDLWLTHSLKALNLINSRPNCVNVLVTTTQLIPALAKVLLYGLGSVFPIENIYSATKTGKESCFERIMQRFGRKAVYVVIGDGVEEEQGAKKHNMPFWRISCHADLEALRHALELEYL
Target sequence (Q15475 whole entry, looked up): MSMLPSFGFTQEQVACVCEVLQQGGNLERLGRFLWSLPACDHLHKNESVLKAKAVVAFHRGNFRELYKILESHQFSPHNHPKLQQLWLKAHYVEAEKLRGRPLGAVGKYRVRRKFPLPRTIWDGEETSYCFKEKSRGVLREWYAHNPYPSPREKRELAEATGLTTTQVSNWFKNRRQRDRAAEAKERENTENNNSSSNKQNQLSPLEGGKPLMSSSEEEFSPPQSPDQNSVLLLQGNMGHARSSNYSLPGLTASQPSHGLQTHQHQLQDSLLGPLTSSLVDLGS
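Compounds are tested against tagged Six1 and Eya2 proteins bridged by glutathione donor and nickel acceptor beads; after a one-hour incubation at 37 °C without light, AlphaScreen emission is recorded.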
TRPML1 ag = human mucolipin-1 channel agonism | activation, % (no concentration beside the values) | AID 624414 | Q9GZU1 | TRPML1-expressing cells, Ca2+ dye fluorescence, FDSS; host cell line not named in the record; reference of the full effect not given here | 410,000 tested, 0.12% active; in the data active = activation above about 50%; inconclusive = about 30% to 50%; inactive = below about 30%; note: 0% is about no effect; the text of the record puts the active cut at 80%
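TRPML1-DL cells, Tet-induced overnight (~16 h, 37 degrees C), loaded 45-90 min at room temperature with Ca8 no-wash calcium dye plus quencher. FDSS fluorescence: 10 s baseline, compound pin-transfer, 110 s agonist read, then EC80 54-4 (4uM final) and 110 s antagonist read.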
D2 potentiator = positive allosteric modulators of human D2 dopamine receptor | P14416 | DiscoveRx D2 beta-arrestin cells, luminescence, 90 min; 100% = 57 uM dopamine signal | potentiation, % (no concentration beside the values) | 360,000 tested, 0.23% active | AID 624464; active = potentiation of 50% or more; inconclusive = 30% to 50%; inactive = 30% or less;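 note: compound concentration not given in the record; tested on top of an EC20 dose of dopamine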
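PathHunter beta-arrestin assay in DiscoveRx D2 cells. Compounds were added with an EC20 of dopamine (50 nM final) for 90 min at 37 deg C. Luminescence was read 1 h after detection reagent, with 57 uM dopamine as the EC100 control.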
* = called active by the depositor; ? = inconclusive; . = no result given; [ ] = remark or other dose. Rows are unselected; any-hit rate near 1.3%.

SMILES | CtBP-E1A blk | PINK1 expr mod | D2 agonist | Six1-Eya2 inh | TRPML1 ag | D2 potentiator
CCOc1ccc(CCNC(=O)C2CCCN(S(=O)(=O)c3c(C)n[nH]c3C)C2)cc1OCC (configuration not stated) | -0.8 | -2.6% | -2.5 | -3.7 | -1.3 | -5.0
Cc1cccc(NN=C2c3ccccc3-c3ccccc32)c1 | 1.6 | ? | 3.0 | -8.2 | 3.2 | -4.6
COc1ccc(C2=NN(C(=O)CN3CCOCC3)C(c3nc4ccccc4[nH]3)C2)cc1 (configuration not stated) | -20.1 | 3.2% | -4.0 | -3.1 | 0.0 | -19.3
O=C(CCn1c(=O)sc2ccccc21)NC1CCCCC1 | 4.3 | 0.5% | -3.4 | 13.9 | -0.7 | -25.3
C=CCNC(=S)Nc1sc2c(c1C(=O)OCC)CC(C(C)C)OC2 (configuration not stated) | -1.2 | -4.5%[38.3 µM] | -0.4 | -8.0 | -0.5 | -4.9
CCN(C1CCS(=O)(=O)C1)S(=O)(=O)c1ccc(Cl)s1 (configuration not stated) | 16.4 | 1.3% | -6.4 | 13.9 | -0.3 | -16.1
O=C(NCCOC(=O)c1ccc([N+](=O)[O-])cc1)c1cccnc1 | 0.5 | -0.5% | 4.7 | -2.7 | 0.1 | -1.5
O=C1C2C3CC(C(Br)C3Br)C2C(=O)N1c1ccccn1 (configuration not stated) | 2.4 | -4.3% | -2.7 | 4.5 | -0.4 | -5.5
CN(C)CCCn1c2c(c(SCC(=O)Nc3cccc4ccccc34)nc1=O)CCCC2 | -3.1 | -0.1% | -1.7 | 1.0 | 0.1 | -14.3
OCCc1c[nH]c2ccccc12 | 6.8 | 1.6% | 2.2 | 0.8 | . | -4.6
COc1cc(NS(=O)(=O)c2ccc(NC(=S)NC(=O)COc3ccccc3OC)cc2)nc(OC)n1 | 1.8 | 2.7% | -3.9 | -2.7 | 0.6 | -3.9
O=[N+]([O-])c1cccc(COc2cccc(CN3CCCCC3)c2)c1 | -13.0 | 4.2% | 0.6 | -14.3 | 1.1 | -16.2
CCOC(=O)NC(CC(=O)O)c1ccc(OC)cc1 (configuration not stated) | -4.3 | 1.4% | -1.9 | 10.9 | 0.7 | -1.8
CCCCc1nc2cc(C(=O)N3CCNC(=O)C3)ccc2o1 | 1.3 | -1.1% | -0.4 | -0.4 | -0.5 | -7.6
CC1(C(=O)NCc2cccc(Cl)c2)Cc2c(-c3ccccc3)ccnc2O1 (configuration not stated) | 0.6 | 2.2% | -2.9 | -0.4 | 0.2 | -19.8
CCOC(=O)[C@H](CCc1ccccc1)N[C@@H](C)C(=O)N1C(C(=O)O)C[C@@H]2CCC[C@@H]21 (some centres not stated) | 3.7 | -0.8% | -3.8 | -0.9 | -0.4 | -3.9
CCOc1ccccc1NC(=O)CSc1nnc(CNC(=O)c2ccco2)o1 | 3.4 | -0.7% | -2.9 | -1.6 | -0.3 | -4.7
COc1cc(F)ccc1-c1cc(C(=O)NCc2cccs2)[nH]n1 | 0.5 | -0.4% | -2.7 | -1.8 | -0.9 | -14.9
Cc1cc(N2C(=O)C(O)=C(C(=O)c3cccs3)C2c2ccc(F)cc2)no1 (configuration not stated) | -0.4 | -0.1% | -1.4 | -7.5 | 2.2 | -1.7
CCOc1ccc(Nc2cc(=O)oc3ccccc23)cc1 | -10.0 | 8.2%[38.3 µM] | -1.5 | 1.0 | -0.1 | -11.9

Arranged by length of the SMILES (falling): five of the compounds above
SMILES | CtBP-E1A blk | PINK1 expr mod | D2 agonist | Six1-Eya2 inh | TRPML1 ag | D2 potentiator
CCOC(=O)[C@H](CCc1ccccc1)N[C@@H](C)C(=O)N1C(C(=O)O)C[C@@H]2CCC[C@@H]21 (some centres not stated) | 3.7 | -0.8% | -3.8 | -0.9 | -0.4 | -3.9
CN(C)CCCn1c2c(c(SCC(=O)Nc3cccc4ccccc34)nc1=O)CCCC2 | -3.1 | -0.1% | -1.7 | 1.0 | 0.1 | -14.3
CC1(C(=O)NCc2cccc(Cl)c2)Cc2c(-c3ccccc3)ccnc2O1 (configuration not stated) | 0.6 | 2.2% | -2.9 | -0.4 | 0.2 | -19.8
CCOc1ccccc1NC(=O)CSc1nnc(CNC(=O)c2ccco2)o1 | 3.4 | -0.7% | -2.9 | -1.6 | -0.3 | -4.7
O=C(CCn1c(=O)sc2ccccc21)NC1CCCCC1 | 4.3 | 0.5% | -3.4 | 13.9 | -0.7 | -25.3

Later entries:
SMILES | CtBP-E1A blk | PINK1 expr mod | D2 agonist | Six1-Eya2 inh | TRPML1 ag | D2 potentiator
COc1ccc(OC)c(S(=O)(=O)N(C)CC(=O)N2CCc3ccccc3C2)c1 | 6.6 | -1.1% | -4.3 | 4.2 | -0.6 | -20.0
O=C(c1ccc(Cl)c(S(=O)(=O)N2CCCCCC2)c1)N1CCCCC1 | -9.3 | 0.9% | -2.3 | 9.5 | 1.3 | -11.5
Cc1ccc(/C=N/N(C)S(=O)(=O)c2ccc(C)cc2)cc1 | 2.3 | -2.5% | 8.7 | 5.1 | 3.7 | -7.3
CCC(=S)/C=C1\Sc2ccccc2N1CCCS(=O)(=O)O | -2.8 | 0.0% | 3.7 | 0.4 | 0.6 | -12.5
CCN(CC)C(=O)C(C)OC(=O)COc1ccc(Cl)cc1Cl (configuration not stated) | 1.5 | 1.1% | -5.6 | 9.2 | 0.3 | -15.6
CCOC(=O)[C@]12CCCC=C1N(Cc1ccco1)C(=O)[C@H](CC(=O)N1CCC(c3ccccc3)CC1)C2 | -11.2 | -0.1% | . | -14.9 | -0.8 | .
O=C1/C(=C\Nc2ccccc2)CCN1c1ncccn1 | 5.2 | -3.8% | -5.2 | -6.9 | 0.0 | -11.3
CCNC(=O)C1(C)CCN(C(=O)c2ccc(N(C)C)cc2)C1 (configuration not stated) | 6.5 | -0.2% | 1.7 | -6.3 | 1.1 | -4.7
O=C1C2=C(CCCC2)C(=O)N1c1cccc(OCCBr)c1 | 4.5 | -0.4% | -0.2 | -2.3 | 3.5 | -7.1
O=C1C2C3C=CC(CC3)C2S(=O)(=O)C2C3C=CC(CC3)C12 (configuration not stated) | 0.6 | 0.5% | -4.9 | -6.3 | 0.4 | -6.5
O=C(O)c1ccc(CNCc2ccc(Cl)cc2)cc1 | -9.5 | 0.4% | -2.7 | 1.5 | 0.3 | -13.5
CCn1c(COc2ccc(Cl)cc2)nnc1SCc1ccc(C#N)cc1 | 4.6 | 0.1% | 0.5 | 0.2 | -0.4 | -3.1
CCOC(=O)c1c(NC(C)=O)sc2c(OCCN(CC)CC)c(Br)ccc12 | 2.2 | 3.0% | -3.3 | -3.1 | -0.2 | -2.9
NNC(=O)Cn1c2ccccc2c2ccccc21 | 6.1 | -1.0% | -6.4 | 0.1 | 1.2 | -4.4
Cc1csc(C(=O)O)c1-c1c(C)csc1C(=O)O | 18.0 | -2.1% | -2.1 | 17.9 | -0.3 | -11.8
COc1ccc(OCCCC(=O)Nc2nncs2)cc1 | -4.4 | -2.1% | 0.8 | 0.9 | -0.4 | -10.3
OC[C@H]1OC(O)[C@H](O)[C@@H](O)[C@H]1O (some centres not stated) | 1.2 | -0.6% | -4.1 | 0.2 | -1.0 | 6.7
CCN(C(=O)COC(=O)c1cc([N+](=O)[O-])ccc1N1CCOCC1)c1ccccc1 | -4.5 | 4.3% | -2.9 | -11.0 | -0.4 | -12.6
CNc1ccccc1C(C)(C)c1cc(-c2cccc([N+](=O)[O-])c2)no1 | -27.3 | 1.9% | 0.8 | -21.8 | -0.1 | -4.1
C[C@H](CO)N1C[C@H](C)[C@@H](CN(C)Cc2ccc(-c3ccccc3)cc2)Oc2c(NC(=O)Nc3ccc4c(c3)OCO4)cccc2C1=O | -9.8 | 0.5% | 4.2 | -7.6 | -0.5 | 8.6
Cc1ccc(OCC(=O)NCc2cccnc2)cc1 | -5.4 | 1.4% | -0.6 | 11.4 | -0.5 | 2.9
O=C(NCC1CCCO1)C(C(=O)c1ccccc1)n1ccccc1=O (configuration not stated) | 4.7 | -2.8% | -2.7 | 0.2 | -1.1 | -11.4
COc1cc2c(cc1OC)CN(C(=O)/C=C/c1cccs1)CC2 | -0.2 | 12.9% | -1.4 | 0.0 | 2.9 | -6.6
Cc1cccc(-c2nc3ccccc3c(=O)n2NC(=O)c2cccnc2Cl)c1 | -18.3 | -0.8% | 0.4 | -1.8 | 3.0 | -0.3
O=C(Nc1nnc(C2=COCCO2)o1)C1CCCCC1 | 3.3 | -1.0% | 3.9 | -10.3 | 0.8 | -7.4
Cc1cc(C)nc(/N=C(\N)N(Cc2ccccc2)Cc2ccccc2)n1 | 0.7 | ? | -5.0 | 3.6 | 1.6 | -4.0
CC(=O)N1N=C(c2cccs2)CC1c1cccc([N+](=O)[O-])c1 (configuration not stated) | . | -1.2% | -15.5 | -0.3 | -0.3 | -31.8
Cc1cc(C(=O)CSc2nnc(N)s2)c(C)n1CCc1ccc(Cl)cc1 | -13.7 | 1.0% | -0.9 | -22.7 | 0.3 | 10.6
CCc1nnc(NC(=O)C=C(C)C)s1 | 11.6 | 0.5% | -3.6 | 8.0 | 0.0 | -8.5
CC1CCCN(C(=O)c2ccc(Cl)c(S(=O)(=O)N3CCCCCC3)c2)C1 (configuration not stated) | . | 2.1% | 9.0 | 0.8 | 1.1 | -17.2
Cc1cc(C)cc(-n2ncc3c2CCCC3NC(=O)CN2CCCC2=O)c1 (configuration not stated) | 0.1 | 0.1% | 6.6 | 6.7 | -0.1 | -5.6
COc1ccc(OC)c(C(=O)NC(CC(N)=O)c2ccc(N3CCN(c4ccccc4)CC3)c([N+](=O)[O-])c2)c1 (configuration not stated) | -11.9 | 0.8% | -5.9 | 0.9 | -0.5 | -12.8
CN(C)c1ccc(-c2csc(C(O)(c3ccccc3)C(F)(F)F)n2)cc1 (configuration not stated) | ? | 13.1% | 2.3 | ? | -0.3 | -7.7
Cc1cc(C)c2c(=O)n(CC(=O)Nc3cccc(F)c3)sc2n1 | 2.1 | -1.0% | -21.4 | -16.1 | . | -15.4
Cc1ccc(NC(=S)NN(C)c2cc(C)nc(C)n2)cc1 | -1.7 | -0.1% | 2.0 | 3.5 | 0.8 | 13.8

Gathered by group: the entries above containing a COOH group.
SMILES | CtBP-E1A blk | PINK1 expr mod | D2 agonist | Six1-Eya2 inh | TRPML1 ag | D2 potentiator
CCOC(=O)NC(CC(=O)O)c1ccc(OC)cc1 (configuration not stated) | -4.3 | 1.4% | -1.9 | 10.9 | 0.7 | -1.8
CCOC(=O)[C@H](CCc1ccccc1)N[C@@H](C)C(=O)N1C(C(=O)O)C[C@@H]2CCC[C@@H]21 (some centres not stated) | 3.7 | -0.8% | -3.8 | -0.9 | -0.4 | -3.9
O=C(O)c1ccc(CNCc2ccc(Cl)cc2)cc1 | -9.5 | 0.4% | -2.7 | 1.5 | 0.3 | -13.5
Cc1csc(C(=O)O)c1-c1c(C)csc1C(=O)O | 18.0 | -2.1% | -2.1 | 17.9 | -0.3 | -11.8
